Bioassay records as filed in PubChem BioAssay.
LT uptake inh = anthrax lethal toxin internalization inhibition. Potency, µM (titrated, usually from 40 µM), for the others: at the highest dose activity change, negative = inhibition, hits mostly inhibitors. 70,000 compounds, 0.67% hits. Cells, anthrax lethal toxin internalization, FRET ratio (460/530); active = well fitted falling ratio curve with the 530 nm signal flat; inconclusive = other ratio curves, or a change in one channel alone; inactive = flat curves in the ratio and both channels; the % refers to the ratio; note: % is set by controls: 0 for no effect and ±100 for the full control effect; nearly all actives have a fitted effect of over 50% in size; tested in ME-180 cells; beta-lactamase reporter
Prx2 Sm inh = blocks S. mansoni peroxiredoxin 2 enzymatic activity; 65,000 compounds, 0.07% hits; AID 448; Potency, µM; S. mansoni Prx2 activity coupled to TGR/GSH (TGR is thioredoxin glutathione reductase), NADPH fluorescence loss, qHTS; some inactives read as strong as hits; active means full or partial inhibition curve with a strong effect at the top dose; inconclusive means weaker partial or single-point curve; inactive means no accepted curve; note: series up to 57 µM; many of its hits are not listed in these tables
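Purified S. mansoni TGR and Prx2 in pH 7.4 phosphate buffer with EDTA and Tween-20 were preincubated with compounds for 15 min. Further NADPH/GSH was added, then a 2.5 mM H2O2 aliquot initiated turnover, followed kinetically by NADPH fluorescence.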
The depositor's hits bear a star; ? = inconclusive; nt = no result given; & = joins results of further samples; [ ] = dose if it differs, or a comment. Potency is the fitted concentration of half-maximal effect. These rows are one share of the data; rates above refer to the full screens.

SMILES | LT uptake inh | Prx2 Sm inh
CCOC(=O)c1ccc(NS(=O)(=O)CC)cc1 | 0% | >57
O=C(CCn1nnc(-c2cccs2)n1)NC1CCCCC1 | -9% | >57
Oc1c(C(c2ccccc2)N2CCc3ccccc3C2)sc2ncnn12 (stereo not given) | 14% | >57
COC(=O)NC1(C(F)(F)F)NC(=O)N(C2CCCCC2)C1=O (stereo not given) | 23% | >57
Cc1nnc(NC(=O)C2(c3ccccc3)CCOCC2)s1 | ? | >57
CCC(CO)NCCNC(CC)CO (stereo not given) | nt | >57
CCCOC(=O)Nc1cc(OC)c(Cl)cc1OC | -3% | >57
O=C(COC(=O)C1=COCCO1)Nc1ncc(C(F)(F)F)cc1Cl | -1% | >57
COc1ccc(OC)c(S(=O)(=O)NCCc2cn3ccsc3n2)c1 | 7% | >57
Cc1ccc2c(c1)N(CC(=O)NC1CCCCC1C)C(=O)CO2 (stereo not given) | -22% | >57
c1cc2[nH]snc2c2nc(C3CC3)nc12 | -10% | >57
FC(F)(F)c1cnc2c(c1)Nc1ccccc1S2 | -21% | >57
O=C(CCN1CCc2ccccc2C1)Nc1cccc(F)c1 | -17% | >57
CCc1cc2cc(C)cc(C)c2nc1SCC(=O)N1CCN(C(=O)c2ccco2)CC1 | -7% | >57
CSc1ccc(CN2CCC(O)CC2)cc1 | -28% | nt
COCCNC(=O)C1CC(=O)N(CCc2ccccc2)C1 (stereo not given) | -2% | >57
CC(C)(C)NCCCCOc1ccccc1F | -14% | nt
COc1cc(C(=O)Nc2ccc(NC(=O)C(C)C)nc2)cc(OC)c1OC | -7% | >57
CCOC(=O)N1CCC(NC(=O)CCN2C(=O)C3C4C=CC(C4)C3C2=O)CC1 (stereo not given) | -17% | >57
CCOC(=O)c1ccc(Nc2ncnc3nc[nH]c23)cc1 | ? | >57
CN(C)c1ccc(CNn2cnnc2SCc2ccccc2F)cc1 | -2% | >57
Cc1ccc(C)n1-c1ccc(C(=O)N2CCOCC2)cc1 | -3% | >57
O=C(O)c1cccc2cccc(-c3cccc4cccc(C(=O)O)c34)c12 | -11%[8 µM] | >57
Cc1ccc(Cl)cc1N1CCN(CCN)CC1 | 13% | >57
COc1ccc(N2CCN(CCCNC(=O)CC3Oc4ccc(C)cc4NC3=O)CC2)cc1 (stereo not given) | ? | >57
O=C(CSc1nc2c(c(=O)n1-c1ccc(Br)cc1)SCC2)Nc1nccs1 | -7% | >57
O=C(c1cc(C(F)(F)F)cc(C(F)(F)F)c1)N1CCC2(CC1)CN(c1ncccn1)C2 | ? | >57
O=C(c1ccncc1)N1CCC[C@@]2(CCN(c3ccccn3)C2)C1 | -2% | >57
COCCSc1nnc(NC(=O)CSCc2ccccc2)s1 | 16% | >57
CCc1ccccc1NS(=O)(=O)c1cc(C)ccc1OC | ? | >57
CC(C)CCn1c(SCC(=O)OCn2nnc3ccccc3c2=O)nc2ccccc2c1=O | ? | >57
COc1cccc(-c2nnc(NC(=O)Cc3cccs3)s2)c1 | 11% | >57
COc1cc(C(=O)Nc2nc3ccc(S(=O)(=O)N4CCOCC4)cc3s2)cc(OC)c1OC | -30% | >57
Cc1ccc(-n2nnc3c(=O)oc4ccccc4c32)cc1 | -13% | >57
O=C(c1ccco1)N1CCN(C(=O)c2cc(-c3ccccn3)nc3ccc(Cl)cc23)CC1 | ? | >57
CCOc1cccc2cc(C(=O)Nc3nccs3)c(=O)oc12 | ? | >57
COc1ccc(OC)c(-c2nc3c(C)n[nH]c(=O)c3[nH]2)c1 | 7% | >57
CCNc1ncc2nc(C)c(=O)n(Cc3cccs3)c2n1 | 11% | >57
COC(=O)c1c(NC(=O)CC2SCC(C(=O)OC)NC2=O)sc2c1CCCC2 (stereo not given) | ? | nt
N[C@H](Cn1ccc(=O)c(O)c1)C(=O)O | -1% | >57&>57
C/C(=C1/SC(N2CCOCC2)=NC1=O)c1ccc(Cl)cc1 | 3% | nt
CN(C)CCCCl | -9% | nt
Nc1cc(N)nc(SCC(=O)Nc2ccc(Br)cc2Cl)n1 | 19% | >57
COc1c(Cl)cc(-c2noc(C)c2C(=O)NCc2ccc3c(c2)OCO3)cc1Cl | ? | >57
Cn1cc(/C=N/n2cnc3scc(-c4ccc(Cl)cc4)c3c2=O)c2ccccc21 | ? | >57
Cn1nnnc1SCC(=O)Nc1ccccc1Cl | -1% | >57
O=C1CC(Sc2nnnn2C2CCCCC2)C(=O)N1c1ccccc1 (stereo not given) | 7% | >57
CC1(C(=O)O)CCC(C(=O)Nc2ccccc2)C1(C)C (stereo not given) | -2% | >57
O=C(N/N=C1/C[C@@H](O)[C@@H](O)[C@@H]2[C@@H]3C(=O)N(c4cccc(Oc5ccccc5)c4)C(=O)[C@H]3CC[C@@H]12)OCc1ccccc1 | 0%[1.6 µM] | nt
Cc1ccc(S(=O)(=O)N2CCN(C(=O)c3cccc(F)c3)CC2)cc1 | ? | >57

A different layout for some results above:
Below each compound – LT uptake inh, Prx2 Sm inh
CC1(C(=O)O)CCC(C(=O)Nc2ccccc2)C1(C)C (stereo not given)
  -2%, >57
Cc1ccc(S(=O)(=O)N2CCN(C(=O)c3cccc(F)c3)CC2)cc1
  ?, >57
COc1c(Cl)cc(-c2noc(C)c2C(=O)NCc2ccc3c(c2)OCO3)cc1Cl
  ?, >57
O=C1CC(Sc2nnnn2C2CCCCC2)C(=O)N1c1ccccc1 (stereo not given)
  7%, >57
Nc1cc(N)nc(SCC(=O)Nc2ccc(Br)cc2Cl)n1
  19%, >57

The list continues:
SMILES | LT uptake inh | Prx2 Sm inh
Nc1nc(SCC(=O)NCc2ccccc2)n[nH]1 | 3% | >57
CCOC(=O)N1CCN(C2CC(=O)N(c3ccc(C)cc3)C2=O)CC1 (stereo not given) | -5% | >57
Cn1nnnc1SCC(=O)N1c2ccccc2Sc2ccc(Cl)cc21 | -22% | >57
O=C1C2C3C=CC(C3)C2C(=O)N1c1cccc2cccnc12 (stereo not given) | -5% | >57
COc1cc2c(cc1OC)-c1cc3ccc(OC)c(OC)c3c[n+]1CC2 | 2%[3.58 µM] | >57
CC(C)CN(C(=O)COC(=O)Cc1n[nH]c(=O)c2ccccc12)C1CCS(=O)(=O)C1 (stereo not given) | 4% | >57
CCOC(=O)c1c(C)[nH]c(C)c1C(=O)CSc1nnnn1-c1ccccc1 | 4% | >57
CCc1nnc(NC(=O)c2cccs2)s1 | -3% | >57
Cc1cc(N2CCN(C(=O)c3ccco3)CC2)n2nc(C)c(-c3ccc(Cl)cc3)c2n1 | ? | >57
CC(=O)Nc1cccc(NC(=O)CCn2cnc3cc(C)c(C)cc32)c1 | -10% | >57
Cc1ccnc(N2C(=O)c3ccccc3C2Nc2cccc(C)c2C)c1 (stereo not given) | -5% | >57
Cn1c(=O)cc(N2CCc3ccccc32)[nH]c1=O | 0% | >57
CCc1nc(N2CCOCC2)c(C#N)c2c1COC(C)(C)C2 | 1% | >57
O=C(NC12CC3CC(CC(C3)C1)C2)C1CCCN1C(=O)NC1CCCCC1 (stereo not given) | -7% | >57
Cc1ccc(-n2c(-c3ccncc3)nnc2-c2ccco2)cc1 | 16% | >57
CCN(CC)CCNC(=O)CS(=O)Cc1nc(-c2ccc(C)cc2)oc1C (stereo not given) | 7% | >57
O=C1CN(C(=O)c2ccc(Br)o2)C(c2ccc(F)cc2)c2cc(Cl)ccc2N1 (stereo not given) | -6% | >57
COc1nc(N)nc2c1ncn2[C@@H]1C[C@H](O)[C@@H](CO)O1 | -8%[8 µM] | >57
O=C(O)[C@H]1CCCNC1 | ? | >57&>57
CN(Cc1ccccc1)Cc1ccccc1F | -5% | >57
C=CCOC(=O)C1=C(C)Nc2nnnn2C1c1cc(OC)ccc1OC (stereo not given) | 7% | >57
CCCC(=O)Nc1cc(C)c(NC(=O)c2ccncc2)cn1 | 14% | >57
O=C(NCCCn1ccnc1)Nc1cccc(Cl)c1 | 2% | >57
COc1ccc(CC(=O)NCc2nnc(SCC(=O)N3CCN(c4ccccc4)CC3)n2C)cc1 | ? | >57
C=C(C)c1cccc(C(C)(C)NC(=O)NC2CN3CCC2CC3)c1 (stereo not given) | -6% | nt
Cn1c(C(=O)N2CCCC(C(=O)O)C2)cc2sccc21 (stereo not given) | 3% | >57
NC(=O)c1cnn2c(C(F)(F)F)cc(-c3ccc(F)cc3)nc12 | -13% | >57
Cc1cc(NC(=O)COc2ccc(Cl)cc2Cl)n(CCC#N)n1 | -2% | >57
O=C(Nc1cccc(NC(=O)c2ccco2)c1)c1ccc2c(c1)OCO2 | 9% | >57
CCC(Sc1nncn1C)C(=O)Nc1ccccc1OC (stereo not given) | 6% | >57

Single entries from the list.
LT uptake inh, Cc1cc(NC(=O)COc2ccc(Cl)cc2Cl)n(CCC#N)n1 is entered as -2%
LT uptake inh, O=C(NCCCn1ccnc1)Nc1cccc(Cl)c1 is entered as 2%

Continuation.
SMILES | LT uptake inh | Prx2 Sm inh
O=C(O)CCC(=O)c1ccc2c(c1)OCCCO2 | ? | >57
Cn1c(NCC2CCCO2)nc2c1c(=O)n(Cc1ccccc1)c(=O)n2C (stereo not given) | 6% | >57
CCc1cc2c(nc1CC)CCN(CC/C(C)=N/O[C@@H](C)CN1CCCCc3nc(C)c(C)cc31)C2 | ? | nt
CCC1CCCCN1C(=O)Cn1c(C(=O)OC)cc2sc(Cl)cc21 (stereo not given) | 0% | >57
C[C@@]12CCC(=O)C[C@@H]1CC(=O)[C@H]1[C@H]3CCC[C@]3(C)C(=O)C[C@@H]12 (tested in a mixture with another compound) | 3%[3.58 µM] | >57
O=C(NC1CC1)c1scc2c1OCCO2 | 1% | >57
CCOc1ccc2nc(NC(=O)CSc3nnc(-c4ccncc4)n3CC3CCCO3)sc2c1 (stereo not given) | -3% | >57
C=CCN(CC=C)C(=O)c1ccncc1 | ? | >57
CCOC(=O)N1CCC(N2C(=O)c3ccc(C(=O)Nc4ccc(F)cc4F)cc3C2=O)CC1 | -11% | >57
O=C(c1ccc2c(c1)OCO2)N1CCCCC1 | ? | >57
CCOC(=O)c1c(-c2ccc(OC)cc2)oc2ccc(OC(=O)N(C)C)cc12 | ? | >57
COc1cc(S(=O)(=O)N2CCCC3(CCCCC3)C2)ccc1-n1cnnn1 | -8% | >57
CCCCNc1nc(C)nc2c1nc(-c1ccccc1)n2CC1CCN(C)CC1 | 3% | nt
COc1ccc(-c2nc(-c3ccc(NC(=O)c4ccncc4)cc3)no2)cc1OC | ? | >57
CCN(CC)C(=O)C1CCCN(Cc2ccc(F)c(F)c2)C1 (stereo not given) | 1% | >57
COc1ccccc1C1CC(c2ccc(F)cc2)Nc2ncnn21 (stereo not given) | -7% | >57
CCc1cc2c(NCC3CCCO3)ncnc2s1 (stereo not given) | -2% | >57
O=C(c1ccc(F)cc1)c1cc2ccccc2o1 | -13% | nt
Cc1cccc(-n2ccnc2SCC(=O)Nc2ccc3c(c2)OCCO3)c1 | 0% | >57
Cc1cc(S(=O)(=O)N(Cc2ccc3c(c2)OCO3)CC2CCCO2)ccc1-n1cnnn1 (stereo not given) | -1% | >57
CC(C)(C)OC(=O)N1CC2Cc3[nH]c(=O)ccc3C(C2)C1 (stereo not given) | -11% | >57
CN(C)c1ccc(-c2nc(NC3CCNCC3)c3ccccc3n2)cc1 | ? | >57
C=CCSc1nc2ccccc2c(=O)[nH]1 | 10% | >57
CCOc1ccccc1N1CCN(C(=O)Nc2cccc(Cl)c2)CC1 | ? | >57
COc1ccccc1-c1nccc(N2CCN(C)CC2)n1 | -3% | >57
O=C(CCC(=O)c1cccs1)Nc1ccccc1F | -13% | >57
O=C1C(=O)N(CCCn2ccnc2)C(c2cccnc2)/C1=C(/O)c1ccc(Cl)cc1 (stereo not given) | 5% | >57
Nc1ccc(S(=O)(=O)Nc2ncccn2)cc1 | -13%[3.58 µM] | >57
CCC(=O)N1CCc2cc(S(=O)(=O)NCCN3CCCCC3CC)ccc21 (stereo not given) | 14% | >57
C=CCOc1cccc(C2/C(=C(/O)c3ccc(C)cc3)C(=O)C(=O)N2CCN2CCOCC2)c1 (stereo not given) | -7% | >57
C=CCn1c(CCNC(=O)c2ccccc2F)nnc1SCC(=O)Nc1nc(C)cs1 | -3% | >57
O=c1oc2ccccc2n1CSC1=NCCS1 | 6% | >57
COc1ccc(Oc2ncc3ncc(=O)n(CCC#N)c3n2)cc1 | 9% | >57
CN1CCN(C(=O)N2c3ccccc3C=Cc3ccccc32)CC1 | 11% | nt
COCCn1nnnc1CN1C2CCCC1CC(NC(C)=O)C2 (stereo not given) | -2% | >57
CCn1c(N)c(C(=O)N2CCOCC2)sc1=S | -4% | >57
COC(=O)[C@H]1C[C@@H]1[C@H](NC(=O)c1ccccc1)c1ccccc1 | 7% | >57
O=C(CSc1nnc(-c2ccccc2)n1Cc1ccco1)Nc1ccc2c(c1)OCCO2 | -6% | >57

As a working copy, 4 of the compounds above.
SMILES | LT uptake inh | Prx2 Sm inh
CCOC(=O)c1ccc(NS(=O)(=O)CC)cc1 | 0% | >57
O=C(CCn1nnc(-c2cccs2)n1)NC1CCCCC1 | -9% | >57
Oc1c(C(c2ccccc2)N2CCc3ccccc3C2)sc2ncnn12 (stereo not given) | 14% | >57
COC(=O)NC1(C(F)(F)F)NC(=O)N(C2CCCCC2)C1=O (stereo not given) | 23% | >57
